ClpP mod: qHTS Assay for Activators of ClpP; purified B. subtilis ClpP, FRET peptide cleavage, 20 min; Potency, µM (series often up to 57.5 µM), for the others: at the highest dose activity change, negative = active; actives 1.9% (n = 340,000); AID 651965, 2013; active = well fitted falling curve with a large enough effect; inconclusive = small, poorly fitted or top-dose-only effect; inactive = no such curve, though single readings can be large or run the other way; also: potency is read from the fitted curve at half-maximal effect; the source files actives as falling curves though it sought activators and does not explain the sign; nearly all actives have a fitted effect of over 65% in size; many hits overshoot -100%
Target sequence (P80244 whole entry, looked up): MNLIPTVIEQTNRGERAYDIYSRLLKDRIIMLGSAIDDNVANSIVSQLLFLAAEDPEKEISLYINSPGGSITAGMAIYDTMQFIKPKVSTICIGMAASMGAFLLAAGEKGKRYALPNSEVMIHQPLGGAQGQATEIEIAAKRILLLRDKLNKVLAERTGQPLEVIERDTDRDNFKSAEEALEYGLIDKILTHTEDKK
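ClpP 10 microg/mL final, pH 8 Tris/KCl buffer with BSA, glycerol, Tween-20; compound pinned in; FRET-FV substrate; RT 20 min; Ex320/Em430; ΔFRET vs ADEP 5.8 microM, DMSO, no enzyme.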
gsp ag: qHTS for Agonist of gsp, the Etiologic Mutation Responsible for Fibrous Dysplasia/McCune-Albright Syndrome: qHTS; gsp mutant cells, cAMP HTRF, 30 min; control for the full effect not named in the record; Potency, µM (highest dose often 76.9 µM), for the others: top-dose activation (cAMP increase), usual class: activators; actives 0.13% (n = 340,000); active = well fitted activation curve with a large enough effect; inconclusive = small, poorly fitted or top-dose-only effect, or another doubt; inactive = no such curve, though single readings can be large or run the other way; cell line not stated here;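 also: phosphodiesterase inhibitor Ro 20-1724 added with compounds to block cAMP breakdown; potency is read from the fitted curve at half-maximal effect; nearly all actives have a fitted effect of over 60% in size; about a fifth of the inactives were tested at one dose only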
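Cells stably selected in G418 were plated at 2000/well, grown 16-24 hr, then given compounds in DMSO with the PDE inhibitor […] (300 uM solution added) for 30 min at 37C; cAMP was read by HTRF.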
TRPV1 PAM: HTS Assay for Compounds that Act as Potentiators of the Vanilloid Receptor 1; AID 540277, 2011; potentiation, % at 8.33 µM; actives 0.02% (n = 320,000); TRPV1-expressing cells, Fluo-8 calcium influx, capsaicin EC20 potentiation; host cell line not named in the record; control for the full effect not named in the record; active means potentiation above 80%; inconclusive means 30% to 80%; inactive means below 30%; also: 0% is about no effect
Target sequence (Q8NER1 whole entry, looked up): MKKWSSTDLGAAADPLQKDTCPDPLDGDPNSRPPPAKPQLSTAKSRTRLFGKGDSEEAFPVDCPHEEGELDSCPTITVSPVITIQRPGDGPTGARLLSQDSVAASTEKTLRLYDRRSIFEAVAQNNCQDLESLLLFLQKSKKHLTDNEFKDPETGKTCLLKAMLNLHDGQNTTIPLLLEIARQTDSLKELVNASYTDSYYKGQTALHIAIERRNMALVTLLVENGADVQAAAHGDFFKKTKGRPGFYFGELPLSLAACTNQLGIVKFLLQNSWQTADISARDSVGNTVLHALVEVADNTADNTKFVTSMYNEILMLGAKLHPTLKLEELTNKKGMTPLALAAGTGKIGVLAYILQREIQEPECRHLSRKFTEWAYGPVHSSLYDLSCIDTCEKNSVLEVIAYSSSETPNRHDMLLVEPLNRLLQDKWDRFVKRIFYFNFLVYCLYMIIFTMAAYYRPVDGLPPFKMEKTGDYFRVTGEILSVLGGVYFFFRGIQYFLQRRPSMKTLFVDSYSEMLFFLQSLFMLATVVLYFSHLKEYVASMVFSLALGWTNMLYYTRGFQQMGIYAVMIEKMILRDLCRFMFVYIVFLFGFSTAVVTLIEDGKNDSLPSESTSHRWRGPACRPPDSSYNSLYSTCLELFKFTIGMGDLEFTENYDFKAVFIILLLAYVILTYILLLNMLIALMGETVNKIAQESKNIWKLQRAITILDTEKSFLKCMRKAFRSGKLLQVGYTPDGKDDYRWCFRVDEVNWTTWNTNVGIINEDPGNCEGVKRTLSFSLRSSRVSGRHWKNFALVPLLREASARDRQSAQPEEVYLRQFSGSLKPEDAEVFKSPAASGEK
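Fluo-8 calcium influx in TRPV1-expressing cells, kinetic read (ex 480/em 520 nm). Compound added and read 3 min for agonist activity, followed by capsaicin at EC20 final and 2 min further read for enhancement.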
Sfp PPTase inh: qHTS Assay for Inhibitors of Bacillus subtilis Sfp phosphopantetheinyl transferase (PPTase); actives 3.5% (n = 310,000); Potency, µM, for inactives: max response, negative = inhibition, most hits filed as inhibitors; Biochemical Sfp PPTase activity, qHTS; AID 1490, 2009; active = well fitted inhibition curve with a large enough effect; inconclusive = small, poorly fitted or top-dose-only effect, or another doubt; inactive = no such curve, though single readings can be large or run the other way;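 also: the enzyme is Sfp with the accession as filed and its product quenches rhodamine fluorescence; potency is read from the fitted curve at half-maximal effect; 0% = enzyme reaction without inhibitor and -100% = no enzyme wells; top concentration of the series not given in the record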
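After 15 min at room temperature with compound, 15 nM Sfp received 5 uM rhodamine-CoA plus 12.5 uM BHQ-2-ybbR (50 mM Hepes pH 7.6, 10 mM MgCl2). Rate came from the fluorescence difference over 30 min, ex 525/em 598 nm.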
TRPML1 inh: qHTS for Inhibitors of the Human Mucolipin Transient Receptor Potential 1 (TRPML1); AID 624415, 2012; activity change, negative = inhibition, % (concentration not given with the values); actives 0.02% (n = 390,000); TRPML1-inducible cells, Ca2+ dye fluorescence, FDSS; stronger effect = lower value; inhibition of EC80 agonist-evoked calcium signal; Mucolipin-1 (Homo sapiens), Q9GZU1; in the data active means activity change below about -50%; inconclusive means about -30% to -50%; inactive means above about -30%;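 also: stimulus is agonist 54-4 at its EC80 concentration; % is scaled to controls: 0 for no effect and ±100 for the full control effect; compound concentration not given in the record; the text of the record puts the active cut at -80%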
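Calcium fluorescence in TRPML1-DL cells induced overnight with Tet: a 110 s read after compound pin addition, then a 110 s antagonist read after challenge with 54-4 at 4 uM final (EC80).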
Menin MLL FP FL: qHTS Assay for Inhibitors Targeting the Menin-MLL Interaction in MLL Related Leukemias: Competition With Fluorescein Labeled MLL-derived Peptide; Fluorescence polarization, fluorescein-MLL peptide displacement from menin; AID 1766, 2009; FP activity change, % at 61.4 µM; 290,000 tested, under 10 active; inconclusive = falling polarisation curve, or a change in total fluorescence; inactive = total fluorescence flat and polarisation flat or rising; no compound was filed as active; the % refers to the polarisation; negative = inhibition;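 also: % of control where 0% means no effect; inhibitors lower the polarisation; unlabelled MLL peptide was the positive control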
gsp antagonist: qHTS for Antagonists of gsp, the Etiologic Mutation Responsible for Fibrous Dysplasia/McCune-Albright Syndrome: qHTS | actives 0.4% (n = 340,000) | Potency, µM (series often up to 76.9 µM), for inactives: at the top dose activity change, negative = inhibition, hits mostly inhibitors | gsp-mutant cells, cAMP HTRF, 30 min; control for the full effect not named in the record; active = falling curve of any shape with a large fitted effect; inconclusive = falling curve, mostly with a smaller effect; inactive = flat or rising curve; cell line not stated here;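 also: intracellular cAMP measured with PDE inhibitor Ro 20-1724 present during compound exposure; potency is read from the fitted curve at half-maximal effect; % is scaled to controls: 0 for no effect and ±100 for the full control effect; nearly all actives have a fitted effect of over 65% in size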
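Measurement of cellular cAMP by homogeneous time-resolved fluorescence following a 30 min compound exposure at 37C. The PDE inhibitor […] was present throughout; the assay buffer was DPBS with 0.05% BSA and 0.005% Tween 20.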
* hit, by the source's call; u = inconclusive; x = not tested or not shown; & = joins results of further samples; [ ] = another dose, or the depositor's remark.

SMILES	ClpP mod	gsp ag	TRPV1 PAM	Sfp PPTase inh	TRPML1 inh	Menin MLL FP FL	gsp antagonist
Cc1ccc(NC(=O)COC(=O)/C=C/c2c(C)nn(-c3ccc(F)cc3)c2Cl)cc1F	-3.9%	32%	-3	14%	3	8.5	10%
O=C(CNc1ccccc1N1CCCC1=O)Nc1cc(Cl)ccc1-n1cncn1	x	-12%[15.4 µM]	-14	x	-5	x	-4%
CCCCn1c(N)c(N(CC)C(=O)c2ccc(Cl)c(Cl)c2)c(=O)[nH]c1=O	x	7%	-2	17%	-13	0.4	14%
CC1(C)CC(C(=O)Nc2nccs2)CCO1 (stereo not drawn)	1.3%	-41%[inhibitor]	-4	29%	16	1.9	-2%
Cc1ccc(S(=O)(=O)N2CCC[C@H]2C(=O)OCC(=O)Nc2ccc3c(c2)OCO3)cc1	0.6%	u	x	x	16	x	-7%
C/C=C(\C)C(=O)NCCN1C2=NC[C@@H](Cc3ccccc3)N2C[C@@H]1Cc1ccc(OC)cc1	-0.8%	x	x	x	44	x	3%
CC(=O)N1CCc2cc(S(=O)(=O)CCC(=O)NCCc3ccc(Cl)cc3)ccc21	-0.8%	-44%[inhibitor]	-16	13%	1	0.5	-7%
CCOCCCNC(=O)C1CCN(S(=O)(=O)N2CC(C)CC(C)C2)CC1 (stereo not drawn)	-3.1%	u	-30	9%	-3	0.3	1%
Nn1c(Cc2cccc3ccccc23)nnc1SCc1ccccc1	-0.1%	-41%[inhibitor]	-17	-12%	u	5.0	5%
Cc1ccc(S(=O)(=O)N2CCN(S(=O)(=O)N(C)C)CC2)c(C)c1	-17%	-21%	5	5%	14	4.5	-5%
CC(C)CCNC(=O)c1ccc(CSCc2cccc(F)c2)o1	-1.9%	-49%[inhibitor]	-22	-11%	-3	2.3	-5%
O=S(=O)(Oc1ccccc1N1CCCCC1)c1ccccc1	x	-1%	-10	-8%	-4	12	-20%
COc1cccc(C(=O)OCC(=O)Nc2ccc3c(c2)OCCO3)c1	x	-2%	x	x	-2	x	13%
C/C(=N\NC(=O)c1nn(C)c(C)c1Br)c1ccc(NC(=O)c2ccoc2C)cc1	u	-10%[15.4 µM]	9	12%	-1	x	-2%
COc1ccc(OCc2cc(C(=O)N(C)Cc3cc(C)no3)no2)c(Cl)c1	0.2%	1%	-7	14%	20	3.6	-5%
CCN1C(=O)/C(=C2/C=CC=CN2C)SC1=S	-0.5%	-2%	-5	u	9	2.6	-9%
COc1ccc(Br)cc1/C=C(\C(=O)O)c1ccc(S(=O)(=O)N2CCCC2)s1	-0.2%	9%[15.4 µM]	x	x	1	x	-11%
Cc1ccc(C(=O)N2CCC3(CC2)NCCc2[nH]cnc23)cc1	0.3%	-1%	u	6%	7	x	4%
O=C(CSc1n[nH]c(-c2cccs2)n1)N1CCN(S(=O)(=O)c2ccccc2)CC1	-11%	-62%[inhibitor]	16	8%	12	1.2	-6%
N#CCSc1ccccc1NC(=O)COC(=O)C1CCN(C(=O)c2ccc(Cl)cc2)CC1	2.5%	-94%[inhibitor]	x	x	9	x	x
Cn1nc(NC(=O)CC(C)(C)CC(=O)O)c2ccccc21	1.7%	1%[15.4 µM]	7	-5%	-11	0.2	-8%
Cc1cc(C(=O)CN2CCN(CC(=O)Nc3ccc(F)cc3)CC2)c(C)n1C1CC1	1.5%	u	18	x	-3	x	u
COc1ccccc1-c1cc(C(=O)N2CCOCC2)no1	x	-18%	-24	17%	-3	-2.9	2%
O=C1[C@H]2[C@@H](c3ccccc3)N[C@]3(CCCN(Cc4ccccc4)C3=O)[C@H]2C(=O)N1Cc1ccccc1	-3.7%	-2%	x	x	-8	x	x
Cc1ccc(S(=O)(=O)NCCC(c2ccccc2)c2ccccc2)cc1C(=O)O	x	-2%[15.4 µM]	2	24%	4	0.0	-1%
COc1cc(C)cc(CN2CCC(Cc3ccccc3)CC2)c1O	1.4%	15%	8	16%	3	9.6	14%
O=C(COc1ccccc1)N1CCN(C(=O)c2ccco2)CC1	1.2%	-5%	13	-1%	-2	3.4	-3%
Cc1cc(S(=O)(=O)NCC(C)C)ccc1OCC(=O)NCc1ccccn1	1.2%	3%	-9	-30%	-6	-0.8	8%
O=C(NCCc1ccc(F)cc1)c1ccncc1	-4.3%	2%	-10	16%	-7	x	11%
C#CCOn1c(-n2nc(C)cc2C)nc2ccccc2c1=O	x	u	21	5%	-8	-1.2	5%

Two records picked at random from the list so far:
SMILES	ClpP mod	gsp ag	TRPV1 PAM	Sfp PPTase inh	TRPML1 inh	Menin MLL FP FL	gsp antagonist
Cc1ccc(C(=O)N2CCC3(CC2)NCCc2[nH]cnc23)cc1	0.3%	-1%	u	6%	7	x	4%
COc1cc(C)cc(CN2CCC(Cc3ccccc3)CC2)c1O	1.4%	15%	8	16%	3	9.6	14%

The list goes on:
SMILES	ClpP mod	gsp ag	TRPV1 PAM	Sfp PPTase inh	TRPML1 inh	Menin MLL FP FL	gsp antagonist
COc1ccc(Cl)cc1S(=O)(=O)N1CCN(C(=O)c2n[nH]c(=O)c3ccccc23)CC1	x	u	x	x	-4	x	-12%
C=C(C)C1CC=C(C)/C(=N/NC(=O)COc2ccccc2C)C1 (stereo not drawn)	6.0%	-40%[inhibitor]	3	-6%	53	5.0	12%
CCOc1cc(C(=O)NC(C)Cc2cccs2)cc(OCC)c1OCC (stereo not drawn)	-0.1%	-1%	-19	15%	-1	-4.5	4%
Cc1ccccc1Nc1ncnc2c1cnn2C	0.4%	16%	-1	5%	-7&-1	3.3	6%
OCCNc1nc2ccccc2n1CCN1CCCCC1	0.0%	13%	11	-1%	19	1.2	10%
O=[N+]([O-])c1ccc(C(=S)N2CCCC2)cc1	x	0%	19	50µM*	5	-2.4	-2%
O=C(CN1CCN(Cc2ccccc2F)CC1)Nc1ccccc1Cl	-0.3%	-30%[inhibitor]	-9	2%	x	0.4	-1%
CCOC(=O)/C(C#N)=C(/C)c1ccc(OC)cc1	-2.2%	-5%	5	4%	-7	3.2	-9%
Cc1cc2nc(SCC(=O)Nc3nonc3C)c3c(c2cc1C)CCCC3	4.5%	14%	0	10%	-15	-0.7	0%
N#CC1C(=N)Cc2ccccc2-c2ccccc21 (stereo not drawn)	x	-17%	x	x	25	x	5%
Cc1ccc(CNc2cc(C(=O)O)ccc2Cl)s1	2.0%	-20%[15.4 µM]	-7	30%	-13	0.7	-20%
COc1ccc(C2CC(c3ccccc3)=NN2C(=O)COC(=O)c2cccc(S(=O)(=O)N3CCOCC3)c2)cc1 (stereo not drawn)	u	-1%	3	10%	3	1.2	-5%
COc1cc(-c2cc(=O)c3c(O)cc(O)cc3o2)ccc1O	1.4%	x	6	3%&-6%	x	u	-11%
O=C(NCc1ccccn1)c1cc(Br)ccc1Cl	x	20%	28	-3%	-1	-0.7	-9%
CSc1ccccc1N=Cc1nc(-c2ccccc2)oc1O	0.7%	-8%	-12	-26%	-2	5.7	-16%
Cc1cc(C2C(=O)c3ccccc3C2=O)c(C)c(C)c1C	1.5%	-35%[inhibitor]	13	7%	x	1.3	u
Cc1c(C)c2ccc(OCC(=O)NCCc3c[nH]c4ccccc34)c(C)c2oc1=O	-5.5%	x	12	-1%	x	-2.3	-21%
C=CCNC(=S)NC(=O)c1csc([N+](=O)[O-])c1	-0.6%	8%[15.4 µM]	-19	56µM*	1	7.8	6%
Cc1ccc(NC(=O)CC(O)(C(F)(F)F)C(F)(F)F)cc1	-2.4%	-15%	14	15%	0	3.2	-16%
Cc1noc(C)c1S(=O)(=O)NC1CCCc2ccccc21 (stereo not drawn)	1.4%	2%	7	0%	3	-0.8	2%
COc1ccccc1/C=C/C(=O)OCCN1C(=O)c2ccccc2C1=O	-16%	u	14	-6%	56	-0.8	-20%
Cc1[nH]n(C(N)=S)c(=O)c1N=Nc1ccc([N+](=O)[O-])cc1Cl	x	1%	4	6%	-13	6.7	-5%
c1ccc(-c2cnc(CSc3ncnc4sccc34)o2)cc1	-0.3%	13%	-9	50µM*	-3	8.2	u
CC(CCc1ccccc1)NC(=O)c1cnc(Cl)c(Cl)c1 (stereo not drawn)	-7.4%	-43%[inhibitor]	-7	9%	7	-3.6	-10%
COc1ccc(NC(=O)CN2CCN(CC(=O)Nc3ccccc3Cl)CC2)cc1Cl	-29%	-41%[inhibitor]	20	-4%	17	2.8	u
CCN1CCN(S(=O)(=O)c2ccc(Br)s2)CC1	0.0%	-26%	5	13%	10	-0.6	3%
CC(=O)Nc1ccc(NC(=O)C(C)OC(=O)C2CCN(S(=O)(=O)c3ccccc3C(F)(F)F)CC2)cc1 (stereo not drawn)	-0.3%	-11%	6	x	3	x	6%
Cc1ccc(-c2cc(C(F)F)nc(NCC3CCCO3)n2)cc1 (stereo not drawn)	u	-9%	-31	-8%	7	5.6	15%
COc1ccc2nc(-c3ccc(N)cc3)[nH]c2c1	116%	1%	2	-12%	21	4.0	-29%
CC1(C(=O)NCCOc2ccccc2Cl)CC1(Cl)Cl (stereo not drawn)	x	-24%	-3	7%	-4	-0.3	-6%
NNC(=O)CNC(c1ccccc1)c1cc(Br)ccc1NC(=O)c1ccccc1Br (stereo not drawn)	0.5%	-7%	-1	18%	5	0.9	-7%
NC(=O)Cn1nnc(-c2ccc(C(F)(F)F)cc2)n1	-1.4%	-8%	x	13%	20	12	-3%
CCOC(=O)C(NC(=O)NCc1ccc(F)cc1)(OCC)C(F)(F)F (stereo not drawn)	-5.3%	0%[15.4 µM]	10	7%	13	7.3	10%
CCOC(=O)C1C(=O)CC(C)(O)C(C(=O)OCC)C1c1ccc(OCC)cc1 (stereo not drawn)	-0.7%	-64%[inhibitor]	1	14%	-2	8.6	-10%
O=C(NCCc1ccccc1)N1c2ccccc2Sc2ccccc21	-1.6%	-16%	-17	-1%	-6	-1.7	-18%
COc1ccc(NC(=O)c2cccnn2)cc1	-1.7%	-44%[inhibitor]	0	24%	x	6.3	9%

Source: PubChem BioAssay
